# Choline anaer gr – growth inhibitors of anaerobic choline-fed gram-negatives, minimal medium, absorbance; calls only; AID 1963822, 2024; Gram-negative bacterium anaerobic choline minimal medium; stronger effect = lower value; many inactives read as strong as hits in the columns shown; hit rate 0.2% among 55,000;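 active means growth z-score on choline under -2 at 7 or 20 h with little or no fall on glycerol, limits in tiers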;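 further: stock transfer was 300 nL into about 50 µL; the organism is E. coli; final concentration not given here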
# Choline anaer gr early – recorded beside Choline anaer gr, whose call it bears; z-score; measured here: choline growth z-score, timepoint 1;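 score of optical density at 7 h as mean of two plates; lower means less growth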
# * marks the source's active call; other numbers are inactive results; i = inactive; + = active, no number. Only part of the results is shown; rates above refer to the full screens.
# Every second line gives: Choline anaer gr, Choline anaer gr early
> CC(=O)N[C@H](C(=O)O)C(C)(C)SN=O
→ i, -0.53
> COc1ccccc1-c1c(C)nn2c(NCCc3ccc(C)cc3)cc(C)nc12
→ i, -1.7
> COc1cccc(NC(=O)c2nc(N3CCCC3)c3oc4ccccc4c3n2)c1
→ i, -0.18
> COc1ccc(NC(=O)c2ccc(CNc3c(N4CCCCC4)c(=O)c3=O)cc2)cc1OC
→ i, 0.21
> COc1ccc(C2C=C(c3ccc(Cl)cc3)Nc3nc(-c4ccc(Cl)cc4)nn32)cc1 (stereo not given)
→ i, 0.38
> CCOc1ccc(S(=O)(=O)N2CCN(c3ccccc3F)CC2)cc1-c1nc(C)no1
→ i, 1.8
> Cc1c(C)n(-c2ccccc2)c2nc(C(=O)Nc3ccc(F)cc3F)nc(N3CCCC3)c12
→ i, -1.1
> O=C1CCS(=O)(=O)N1c1ccc(S(=O)(=O)N2CCc3ccccc32)cc1
→ i, -0.45
> Cc1cc(C)cc(Nc2nc(N)c(C(=O)C(C)C)s2)c1
→ i, -0.23
> Cc1ccc(-c2noc(-c3ccc(NCc4ccc5c(c4)OCO5)nn3)n2)cc1
→ i, 0.36
> Cc1nc(NC(=O)c2snnc2C)sc1C
→ i, -2.7
> Cc1ccc(Nc2nc(-c3ccc(Cl)cc3)cs2)nc1
→ i, 0.02
> Cc1ccc(-c2nc(CSc3nc(-c4ccccc4)cc(=O)[nH]3)c(C)o2)cc1
→ i, -0.96
> CCOc1ccc(C(=O)NCCn2c(-c3ccncc3)nc3ccccc32)cc1
→ i, 0.45
> CCCCNC(=O)C1CCCN(C(=O)CCc2c(C)[nH]c(C(=O)OCC)c2C)C1 (stereo not given)
→ i, -0.01
> COC(=O)c1ccc(Nc2c(C)c(C)nc3ncnn23)cc1
→ i, -0.03
> CCC(=O)n1nc(C)c(S(=O)(=O)N2CCCC2)c1C
→ i, 1.4
> CCN(CC)c1nc2[nH]c(=S)n(C(C)C)c(=O)c2s1
→ i, 0.42
> CC(=O)Nc1ccc(S(=O)(=O)NCCCn2c(-c3ccc(C)cc3)nc3cccnc32)cc1
→ i, -0.32
> CCN(CC)CCCN(c1ccccc1)C1Cc2ccccc2C1
→ i, 0.1
> Cc1noc(C)c1C1CCCN1C(=O)c1cc(C(C)C)no1 (stereo not given)
→ i, -1
> CCC(CC)C(=O)Nc1cc(Cl)ccc1OCc1cc(=O)n2ccsc2n1
→ i, 1.9
> COc1ccc(-c2cc(C(F)(F)F)n3ncc(C(=O)NCc4cn(C)nc4C)c3n2)cc1OC
→ i, 0.14
> CCNc1cc(C)nc(Nc2ccc(NS(=O)(=O)c3ccc(C)cc3C)cc2)n1
→ i, -0.89
> O=C(NCCc1nc(-c2ccccc2)no1)c1cc(-c2ccccc2)on1
→ i, 0.13
> COc1ccc(C(=O)Nc2sc3c(c2-c2nc4ccccc4s2)CCN(C(C)C)C3)cc1OC
→ +, -3.3*
> COc1ccc(S(=O)(=O)N2CCc3c(c(CN(C(C)=O)c4ccccc4)nn3C)C2)cc1
→ i, 0.03
> O=C(c1cc2ccccc2[nH]1)N1CCCN(c2ccc(=O)n(-c3ccccc3)n2)CC1
→ i, -1.6
> O=C(Nc1ccccc1F)c1cccc(NC(=O)N2CCCCc3ccccc32)c1
→ i, 0.12
> CCC(C)NC(=O)c1ncoc1-c1ccccc1C(=O)N1CCCC1 (stereo not given)
→ i, 0.66

# An excerpt from above in order of the Choline anaer gr early value, highest first.
molecule,Choline anaer gr early
COc1ccc(C2C=C(c3ccc(Cl)cc3)Nc3nc(-c4ccc(Cl)cc4)nn32)cc1 (stereo not given),0.38
COC(=O)c1ccc(Nc2c(C)c(C)nc3ncnn23)cc1,-0.03
COc1cccc(NC(=O)c2nc(N3CCCC3)c3oc4ccccc4c3n2)c1,-0.18
Cc1c(C)n(-c2ccccc2)c2nc(C(=O)Nc3ccc(F)cc3F)nc(N3CCCC3)c12,-1.1
O=C(c1cc2ccccc2[nH]1)N1CCCN(c2ccc(=O)n(-c3ccccc3)n2)CC1,-1.6

# Further entries:
# Every second line gives: Choline anaer gr, Choline anaer gr early
> CC(C)c1ccc(-c2nc(C(N)=O)c3c(n2)n(-c2ccc4c(c2)OCO4)c(=O)n3C)cc1
→ i, -1.1
> COc1ccc(NC(=O)c2ccc3nnc(SCC(=O)Nc4ccc5c(c4)OCCO5)n3c2)cc1
→ i, 1.3
> Cn1c(=O)c(-c2noc(CCC(=O)NC3CC3)n2)nn(-c2ccccc2)c1=O
→ i, 0.53
> Cc1ccc(C(=O)NC2CCCC2)cc1NC(=O)c1nsc2ccccc12
→ i, -1.4
> CN(C)c1cc(-n2cccn2)ncn1
→ i, -0.24
> Cc1cc(C)cc(NC(=O)N2CCSc3nc(C)cc(C)c32)c1
→ i, 0.47
> O=C(Nc1ccc(-n2cnnn2)cc1)c1ccccc1
→ i, -0.12
> CCOC(=O)CC(NC(=O)Nc1c(-c2cccnc2)[nH]c2ccccc12)c1ccccc1 (stereo not given)
→ i, 0.76
> Fc1ccccc1-c1ccc(CNCc2ccc3c(c2)OCO3)o1
→ i, -1.9
> COc1cc(-c2nc3nc[nH]n3c2Nc2ccc(C)cc2)ccc1O
→ i, 0.38
> CC(NC(=O)C1(c2ccccc2)CCCC1)C1COc2ccccc2O1 (stereo not given)
→ i, 0.13
> O=C(c1cc(-c2ccc(F)cc2)on1)N1CCOCC1
→ i, -0.1
> Cc1cc(-c2cc(S(=O)(=O)N3CCCCC3)c(C)s2)on1
→ i, 1.2
> c1ccc(-c2cc3c(N4CCN(c5ccccc5)CC4)nccn3n2)cc1
→ i, 0.88
> CC1(C)C(=O)N(CC(=O)NC2CCCC2)c2ccc(S(=O)(=O)N3CCCCC3)cc21
→ i, -0.08
> COc1ccc(NC(=O)c2c(S(=O)(=O)Nc3ccc(Cl)cc3)n[nH]c2C)cc1OC
→ i, -0.38
> Cc1ccc2c(c1)N(CC(=O)NCCCN1CCOCC1)C(=O)CO2
→ i, 0.35
> COC(=O)c1cc(NC2c3ncccc3C(=O)N2c2ccc(OC)cc2)cc(C(=O)OC)c1 (stereo not given)
→ i, 0.68
> COc1ccc(OC)c(CNC(=O)CSc2nc3ncccc3n3cccc23)c1
→ i, 0.06
> COc1cccc(NC(=O)Nc2ccc3nc(SCC(=O)Nc4ccc(C)cc4)sc3c2)c1
→ i, 0.44
> Cc1ccc2nc(C(=O)Nc3ccccc3F)cc(N3CCCCC3)c2c1
→ i, 0.03
> O=C(NC1CCCCCC1)C1CCN(c2cncnc2N2CCCC2)CC1
→ i, 1.4
> COc1cccc(CNCc2c(C(=O)O)c(C)n(-c3ccc(C)cc3)c2C)c1
→ i, 0.83
> Cc1cc(=O)n(CC(=O)N2CCN(c3ccccc3)CC2)c(-n2nc(C)cc2C)n1
→ i, -0.71
> COc1cccc(CNC(=O)c2nc(N3CCCC3)c3c(C)c(C)n(-c4cccc(Cl)c4)c3n2)c1
→ i, 1.7
> COCCNC(=O)N1Cc2c(C)nn(-c3ccccc3)c2-n2cccc2C1c1cccc(C)c1 (stereo not given)
→ i, 0.19
> COC(=O)CS(=O)(=O)c1ccc2c(c1)S(=O)(=O)N=CN2
→ i, 0.35
> CCOc1ccc(S(=O)(=O)NCc2nc(-c3ccccc3)oc2C)cc1
→ i, 1.8
> Cc1c(CC2C(=O)Nc3ccccc32)oc2ccc(F)cc12 (stereo not given)
→ i, -1.6
> Cc1[nH]c2ccccc2c1/C=C/c1nc2ccccc2c(=O)n1CCc1ccccc1
→ i, -2

# New compounds follow:
# Every second line gives: Choline anaer gr, Choline anaer gr early
> CCOc1ccc(NC(=O)Nc2cccc(OCc3cc(=O)n4cc(Cl)ccc4n3)c2)cc1
→ i, -0.52
> O=C(C1CCCN(c2ccc3cc(S(=O)(=O)N4CCCCC4)ccc3n2)C1)N1CCOCC1 (stereo not given)
→ i, 0.71
> O=C(Nc1ccc(F)cc1F)N1CCC(n2cnc3c(Cl)cccc3c2=O)CC1
→ i, 1.6
> COc1ccc(-c2cc3c(=O)n(Cc4nc(-c5ccccc5Br)no4)ncn3n2)cc1
→ i, 1.1
> CCCCN(CC)C(=O)c1cc2cccnc2n(Cc2ccc(F)cc2)c1=O
→ i, 1.8
> O=C(CN1CCc2ccccc2C1C(=O)N1CCCC1)N1CCN(C2CCCCC2)CC1 (stereo not given)
→ i, 0.99
> Cc1nc(-c2cc3ccccc3nc2N2CCN(C(=O)Cc3ccccc3)CC2)no1
→ i, 0.75
> Cc1c(C(=O)N2CCCCC2)oc2ccc3c(c12)C(O)CC1(CCCCC1)O3 (stereo not given)
→ i, -0.65
> CCCn1c(=O)c(N2CCC(NC(=O)Nc3cccc(F)c3)CC2)nc2ccccc21
→ i, 0.16
> CCCSCCCNC(=O)Cn1cnc2oc(C)c(C)c2c1=O
→ i, -0.64
> CCc1ccc(-n2c(-c3ccc(Cl)cc3)cn3c4c(=O)n(C)c(=O)n(C)c4nc23)cc1
→ i, 0.17
> COc1cc(OC)c(NC(=O)CCn2cnc3c(-c4ccc(C)cc4)noc3c2=O)cc1Cl
→ i, 0.2
> O=C(CCc1nc2sc3c(c2c(=O)[nH]1)CCCCC3)NCCC1=CCCCC1
→ i, 0.31
> CN(C)S(=O)(=O)c1ccc2c(c1)c(C(=O)n1ccnc1)cn2C
→ i, -0.15
> Nc1ccc(S(=O)(=O)Nc2ccc(Cl)nn2)cc1
→ i, 0.24
> O=C(c1sc2ncccc2c1-n1cccc1)N1CCN(c2ccccc2Cl)CC1
→ i, -0.78
> O=S(=O)(c1cccc(Cl)c1)N1CCc2nc(N3CCCCC3)ncc2C1
→ i, -0.03
> Cc1ccc(-n2ccc(=O)c(-c3nc(-c4ccc(Cl)c(F)c4)no3)n2)cc1
→ i, -0.81
> CCOC(=O)c1c(NC(=O)CSc2nnc(CNC(=O)c3cccc(F)c3)n2C)sc2c1CCCC2
→ i, 1.5
> COc1ccc(C(=O)Nc2ccccc2SCc2nnc(-c3ccccc3)o2)cc1OC
→ i, 0.43
> O=C(Cn1c(=O)n(-c2ccc(CC(=O)NC3CC3)cc2)c(=O)c2ccccc21)Nc1ccc(F)cc1
→ i, 1.5
> Cc1ccc(CNC2=NCCNC23CCN(S(=O)(=O)c2ccc(C)cc2C)CC3)cc1
→ i, -1.2
> O=C(Nc1ccc(F)cc1)c1ccccc1OCc1nc(-c2ccccc2)no1
→ i, 0.59
> Cc1ccc(C(=O)N2CCc3[nH]cnc3C23CCCCC3)s1
→ i, 1.2
> Cc1nc(-c2ccc(C)c(S(=O)(=O)N3CCC(C(=O)Nc4cccc(-c5ccno5)c4)CC3)c2)no1
→ i, 0.14
> CCN1c2cc(C)ccc2-n2cccc2C12CCN(S(=O)(=O)c1ccc(C)c(C)c1)CC2
→ i, -1.2
> Cc1cc(=O)[nH]c(Nc2ccccc2F)n1
→ i, -1.8
> COc1ccc(OCCCn2c(C3CCCO3)nc3ccccc32)cc1 (stereo not given)
→ i, -0.38
> O=C(CSc1nc2ncccc2n2cccc12)NCc1ccccc1Cl
→ i, -0.94
> COC(=O)c1ccccc1NC(=O)Cn1nc(C)c2nn(-c3ccc(Cl)cc3)c(C)c2c1=O
→ i, -0.25

# 2 records drawn at random from those above:
# Every second line gives: Choline anaer gr, Choline anaer gr early
> O=C(c1sc2ncccc2c1-n1cccc1)N1CCN(c2ccccc2Cl)CC1
→ i, -0.78
> CN(C)S(=O)(=O)c1ccc2c(c1)c(C(=O)n1ccnc1)cn2C
→ i, -0.15

# Next compounds follow.
# Every second line gives: Choline anaer gr, Choline anaer gr early
> COc1ccccc1Oc1nc2ccccc2nc1N1CCCC1
→ i, -0.28
> O=C(NCc1ccccc1)c1nc[nH]c1C(=O)NCc1cccnc1
→ i, -1.2
> Nc1cc(OC(=O)c2ccccc2F)nn1S(=O)(=O)c1ccc(F)cc1
→ i, -0.52
> CCOC(=O)c1c(C)n(-c2ccc(C)cc2C)c2ccc(O)cc12
→ i, 0.65
> COc1ccc(NC(=O)C(Cc2ccccc2)NS(=O)(=O)c2cccc3cccnc23)c(OC)c1 (stereo not given)
→ i, 0.9
> Cc1csc(NC(=O)c2nn(-c3ccccc3)c3c(=O)n(C)cnc23)n1
→ i, -1.4
> O=C(NCCc1ccccc1)C(=O)c1c[nH]c2ccccc12
→ i, 0.94
> O=S(=O)(c1ccc2c(c1)OCCO2)N1CCN(c2ncnc3c2nnn3-c2ccc(F)cc2)CC1
→ i, -0.61
> Cc1nc2c(-c3ccc(F)cc3)c(C)nn2c(C)c1CCC(=O)NCCN1CCC(Cc2ccccc2)CC1
→ i, 0.57
> CCN(CC)S(=O)(=O)c1ccc2oc(-c3nc(-c4ccncc4)no3)c(C)c2c1
→ i, 0.66
> CCCCNC(=O)CN1C(c2ccccc2)=CC(c2ccccc2)n2nnnc21 (stereo not given)
→ i, -1.1
> COc1ccccc1CNC(=O)C1c2c(C)nn(-c3ccccc3)c2SCC(=O)N1c1ccc(Cl)cc1 (stereo not given)
→ i, 1
> CO[C@H]1/C=C/O[C@@]2(C)Oc3c(C)c(O)c4c(O)c(c5c(c4c3C2=O)NC2(CCN(CC(C)C)CC2)N=5)=NC(=O)/C(C)=C\C=C\[C@H](C)[C@H](O)[C@@H](C)[C@@H](O)[C@@H](C)[C@H](OC(C)=O)[C@@H]1C
→ i, -2.1
> CC(=O)N1CCC(NC(=O)NC(C)(C)C)C1 (stereo not given)
→ i, 0.58
> COCCNC(=O)c1nnc2ccc(-c3ccccc3)nn12
→ i, -0.9
> Cc1nn2c(=O)cc(CSc3nc(-c4ccccc4C)nc4cc(=O)[nH]n34)nc2s1
→ i, -0.39
> CCN1CCN(Cc2cc(=O)n3[nH]c(-c4ccccc4)nc3n2)CC1
→ i, -0.6
> O=C(NCCn1c(C(F)(F)F)nc2cccnc21)Nc1ccc(Br)cc1F
→ i, -0.3
> O=c1[nH]c2ccccc2n1CCCN1CCN(C(c2ccccc2)c2ccccc2)CC1
→ i, 0.18
> Cn1nccc1C(=O)NC1CCN(c2ncnc3c2CCC3)C1 (stereo not given)
→ i, -0.2
> Cc1ccc(S(=O)(=O)N2CCN(c3ncnc4c3nnn4-c3ccccc3)CC2)cc1
→ i, 1.2
> CCCN1CCN(Cc2nc3nc(C)cc(N4CCCCC4)n3n2)CC1
→ i, -0.27
> O=C(NCCN1CCCC1)c1ccc(NC(=O)N2CCSc3ncccc32)cc1
→ i, -0.97

# Source: PubChem BioAssay
